High-throughput results deposited in PubChem BioAssay by National Center for Advancing Translational Sciences (NCATS).
Rango dissoc inh = inhibitors of RanGTP-induced Rango-importin beta complex dissociation | Biochemical FRET Rango-importin beta, RanGTP-induced dissociation | 340,000 compounds, 0.071% hits | Potency, µM (highest dose often 46.1 µM), for inactives: at the top dose activity change, negative = inhibition; active means falling FRET ratio curve, often poorly fitted, with flat reads before Ran was added; inconclusive means other falling curves, or compound fluorescence or quenching; inactive means flat or rising ratio curve;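 also: potency is read from the fitted curve at half-maximal effect; % of control where 0% means no effect; nearly all actives have a fitted effect of over 45% in size; -100% = wells without RanGTP and RCC1; the record marks most hits as doubtful in a second field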
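Two FRET readings bracket the reaction: one 5 min after compound meets Rango–importin beta, another 45 min after RanGTP-RCC1 (0.6 uM Ran, 0.2 uM RCC1, 2 mM GTP) is added. Only the second defines inhibition.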
miR-21 reporter = miR-21 reporter, rising signal. HeLa miR-21 FLuc reporter, luciferase, 48 h. Potency, µM (doses to about 38.3 µM), without a hit: at the highest dose reporter change, positive = more light. 340,000 tested, under 10 active. AID 2288; active = well fitted rising curve with a large enough effect; inconclusive = small, poorly fitted or top-dose-only effect; inactive = no such curve, though single readings can be large or run the other way;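 also: % of control where 0% means no effect; miR-21 action dims this reporter so a rising signal means less miR-21 action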
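Luminescence from a firefly luciferase reporter carrying a miR-21 binding site downstream, stably expressed under a CMV promoter in HeLa cells that make miR-21 endogenously, reports miRNA modulation after 48 h compound exposure up to approximately 40uM final.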
GLA inh pH 4.5 = blocks human alpha-galactosidase A at pH 4.5 | P06280 | purified enzyme, 4-MU-alpha-Gal fluorescence, pH 4.5 | activity change, negative = inhibition, % at 105 µM | 230,000 tested, under 10 active; inconclusive = small, poorly fitted or top-dose-only inhibition, or a rising curve; inactive = flat fitted curve, though single readings scatter; no compound was filed as active;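 also: 0% = full activity with enzyme and -100% = basal without enzyme; dose as in the result columns while the protocol names 77 µM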
Target sequence (P06280 whole entry, looked up): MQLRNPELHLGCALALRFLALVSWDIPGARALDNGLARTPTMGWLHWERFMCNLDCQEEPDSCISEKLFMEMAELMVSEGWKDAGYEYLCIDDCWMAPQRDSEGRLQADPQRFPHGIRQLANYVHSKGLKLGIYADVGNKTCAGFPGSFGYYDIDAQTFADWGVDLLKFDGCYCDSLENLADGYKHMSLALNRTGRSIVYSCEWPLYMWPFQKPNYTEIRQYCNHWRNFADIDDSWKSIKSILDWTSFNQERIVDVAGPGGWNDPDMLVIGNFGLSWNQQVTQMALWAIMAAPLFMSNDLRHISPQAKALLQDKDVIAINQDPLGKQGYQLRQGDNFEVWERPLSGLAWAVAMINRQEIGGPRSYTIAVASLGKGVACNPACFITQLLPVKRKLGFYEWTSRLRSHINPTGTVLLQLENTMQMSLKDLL
Rango-impB inh = prevents formation of the Rango-importin beta complex; 340,000 compounds, 0.031% hits; Potency, µM (doses to about 92.2 µM), without a hit: at the top dose inhibition of complex formation; Rango CFP/YFP FRET sensor + importin beta, 45 min; Q14974; active = rising FRET ratio curve, often small or poorly fitted; inconclusive = mostly compound fluorescence or quenching in the first reads; inactive = flat curves in all reads;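 also: potency is read from the fitted curve at half-maximal effect; 0% = DMSO wells and 100% = buffer wells lacking importin beta; nearly all actives have a fitted effect of over 15% in size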
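FRET biosensor (snurportin 1 IBB flanked by EYFP and cerulean), 50 nM, with compound 5 min, then 0.125 microM importin beta in PBS, 1 mM DTT, 0.02% Tween-20, 0.1% BSA. CFP/YFP ratio read after 45 min at room temperature; pre-read flags interference.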
The depositor's hits bear a star; u = inconclusive; x = not tested or not shown; & = joins results of further samples. The list is partial, so the mix of outcomes need not match the whole.

miR-21 reporter | Rango dissoc inh | GLA inh pH 4.5 | Rango-impB inh | compound
x | 17% | x | -1.5% | Cc1csc(N2C(=O)C3C4CCC(O4)C3C2=O)n1 (centres undefined)
x | 4% | x | 1.5% | Cc1cc(-n2c(C)cc(C(=O)CN3C(=O)C(=O)N(C)C3=O)c2C)no1
-2% | -14% | 3 | -1.3% | O=C(O)c1cn(-c2ccccc2)nc1C(=O)O
1% | 3% | 4 | 4.2% | CC(C)NC(=O)NC(=O)COC(=O)c1ccc(S(=O)(=O)Nc2ccccc2)cc1
24% | 4% | x | -2.3% | CC1CCN(S(=O)(=O)c2ccc(C(=O)Nc3nnc(C4CC4)o3)cc2)CC1
-37% | -1% | 5 | 0.1% | O=c1c2[nH]c3ccccc3c2ncn1C1CCCCC1
-12% | 7% | 2 | 3.7% | CC(=O)C1=C(O)C(=O)N(Cc2ccccc2)C1c1cccs1 (centres undefined)
x | -14% | x | -3.5% | C/C=C(\C)C(=O)OC1CC(C)(C)C[C@H]2C3=CC[C@@H]4[C@@]5(C)CCC(O[C@@H]6O[C@@H](C(=O)O)[C@@H](O)C(O[C@@H]7OC[C@H](O)[C@@H](O)[C@@H]7O[C@@H]7OC(CO)C(O)[C@@H](O)[C@@H]7O)C6O[C@@H]6OC(CO)C(O)C(O)C6O)[C@@](C)(CO)[C@@H]5CC[C@]4(C)[C@]3(C)CC(O)[C@@]12CO (some centres undefined)
-3% | 7% | 6 | -0.1% | Cc1cccc(C)c1NC(=O)N1CCC(N2CCCCC2)CC1
-1% | -2% | u | -0.2% | COc1ccc(Cl)cc1NC(=O)Cn1c(NCCO)nc2ccccc21
-79% | -16% | -18 | -1.8% | O=C(N/N=C/c1cccs1)c1c[nH]c2ccccc12
2% | -6% | 7 | 2.2% | Oc1cc2c(cc1O)[C@@H](c1ccccc1)CNCC2
0% | 8% | 5 | 5.8% | O=C(NNC(=S)Nc1ccc(Cl)c(Cl)c1)c1ccccn1
-2% | 15% | -14 | -1.4% | COc1ccc(C(=O)NNC(=O)CSc2nc3c(c(=O)n(C)c(=O)n3C)n2C)cc1
-2% | 26% | -4 | -3.1% | CCOc1ccc(OCC)c(NC(=O)CSc2nc3c(c(=O)n(C)c(=O)n3C)n2CC)c1
-23% | 2% | 4 | u | CNC(=O)CO/N=C/c1ccc(N(C)C)cc1
-5% | 5% | -3 | -0.7% | O=C(N/N=C/c1ccc[nH]1)c1ccncc1
4%&0% | -4% | x | -1.9% | COc1ccc(NC(=O)Cn2c(=O)oc3cc(Cl)ccc32)c(OC)c1
-9% | -3% | x | -0.8% | Cc1ccc2nc(Nc3ccc(F)cc3)c3nncn3c2c1
-8% | -8% | x | 2.4% | O=C(NNS(=O)(=O)c1ccc([N+](=O)[O-])cc1)c1ccc2ccccc2c1O

Look-ups from the results shown:
COc1ccc(Cl)cc1NC(=O)Cn1c(NCCO)nc2ccccc21 in Rango dissoc inh → -2%
CNC(=O)CO/N=C/c1ccc(N(C)C)cc1 in miR-21 reporter → -23%
Cc1csc(N2C(=O)C3C4CCC(O4)C3C2=O)n1 (centres undefined) in Rango dissoc inh → 17%
Oc1cc2c(cc1O)[C@@H](c1ccccc1)CNCC2 in GLA inh pH 4.5 → 7

Carrying on:
miR-21 reporter | Rango dissoc inh | GLA inh pH 4.5 | Rango-impB inh | compound
5% | -1% | 7 | 0.1% | O=C1NC2(CCCCC2)NN1c1ccccc1
-4% | 1% | -20 | 0.1% | Cc1ccc(OC(=O)CCC(=O)OCCCC(F)(F)C(F)(F)F)cc1
-1% | 7% | -4 | -0.2% | N#CCCC1CCCC=C1N(Cc1ccccc1)C(=O)C(Cl)Cl (centres undefined)
-1% | -9% | -7 | 0.7% | O=C1[C@@H]2[C@H](C(=O)N1O)[C@H]1C=C[C@@H]2C1
x | 24% | x | -3.9% | COCCN(C(=O)c1sc2ccccc2c1Cl)c1c(N)n(CC(C)C)c(=O)[nH]c1=O
-16% | -6% | 0 | 5.0% | O=C(Nc1ccc(N2CCCC2)c(Cl)c1)c1ccc([N+](=O)[O-])cc1
-6% | -12% | x | -1.3% | Cc1ccnc(NS(=O)(=O)c2ccc(NC(=O)CC(C)c3ccccc3)cc2)n1 (centres undefined)
-8% | 4% | -9 | -0.8% | CCc1ccc(NC(=O)CSCCN2C(=O)c3ccccc3C2=O)cc1
0% | 20% | 7 | -0.6% | Cc1ccc2c(c1)N(CCC(=O)NCC1CCCO1)C(=O)CO2 (centres undefined)
8% | -2% | -4&-11 | 1.7% | Nc1ccn([C@@H]2O[C@H](CO)[C@@H](O)C2O)c(=O)n1 (some centres undefined)
0% | -9% | -8&0 | 4.4% | c1ccc2c(c1)CN1CCCC1=N2
-3% | 1% | 2 | -1.4% | COc1ccc(CCNC(=O)CCS(=O)(=O)c2cccc3nsnc23)cc1OC
-4% | -2% | -15 | 0.0% | COc1ccc(OC)c(NC(=O)CSc2nc3ccccc3cc2Cc2ccccc2)c1
-18% | -9% | 3 | -3.4% | Cc1ccc(S(=O)(=O)N2CCCCCC2)cc1[N+](=O)[O-]
-2% | 7% | -3 | 0.6% | O=C(NS(=O)(=O)Oc1cccc(Cl)c1Cl)OC[C@@H]1CCCN2CCCCC12 (some centres undefined)
0% | 1% | x | -4.4% | COCCOc1ccc(C(F)(F)F)cc1NC(=O)COC(=O)C12CC3CC(CC(O)(C3)C1)C2
-3% | 25% | x | -1.6% | O=C(O)Cc1ccc(NC(=O)Cc2ccc3ccccc3c2)cc1
-6% | 8% | 5 | -3.8% | COc1ccc(N2CCN(c3nc4c(c(=O)[nH]c(=O)n4C)n3Cc3cccc(C)c3)CC2)cc1
23% | 0% | -7 | 0.8% | COc1ccc(CN2CCN(C(=O)C3CCC(CNS(=O)(=O)c4ccccc4)CC3)CC2)c(OC)c1OC (centres undefined)
-3% | 0% | x | 0.2% | COc1ccccc1N1CCN(C2CCCN(C(=O)CCc3ccccn3)C2)CC1 (centres undefined)
4% | 0% | -2 | 5.4% | CC(C)(CNc1ccc([N+](=O)[O-])cc1Cl)CNS(C)(=O)=O
-2% | 29% | x | 6.3% | COc1ccc(S(=O)(=O)NCC(=O)NC2CC2)cc1OC
x | -23% | x | -0.7% | NS(=O)(=O)c1ccc(NC(=O)COC(=O)c2ccc(S(=O)(=O)N3CCOCC3)cc2)cc1
0% | -3% | -10 | -5.3% | CC(C)NC(=O)c1ccccc1NC(=O)C1CCCO1 (centres undefined)
-8% | -15% | 1 | -4.7% | COc1cccc(NC(C)C(=O)N2CC(C)OC(C)C2)c1 (centres undefined)
27% | -15% | -9 | -2.2% | CC(C)Cn1c(N)c(C(=O)COC(=O)CN2C(=O)C3CC=CCC3C2=O)c(=O)n(C)c1=O (centres undefined)
-28% | 39% | x | -2.3% | Cc1cc(Cl)nc(NC(=O)Nc2cccc(Cl)c2)n1
-3% | -1% | 2 | -7.6% | O=C(NCc1ccccc1)c1ccc(/C=N/O)nc1
x | 10% | x | 1.1% | Cc1cc(C(=O)NNC(=O)C(C)(C)Oc2ccc(Cl)cc2)c(C)o1
16% | -2% | x | 3.0% | COc1cc(-c2noc(C)c2/C=C/c2cccc([N+](=O)[O-])c2)cc(OC)c1OC
-13% | -7% | 4 | -1.2% | CCC(C)NC(=O)C1=C(C)C(=O)OC12CCC(C)CC2 (centres undefined)
-61% | 10% | -12 | 1.8% | O=C1/C(=C/c2ccccc2)CCCc2ccccc21
x | 1% | x | -2.2% | NC(=O)c1ccsc1NC(=O)COC(=O)c1cc(=O)[nH]c2ccccc12
-22% | 4% | -5 | -1.9% | CCOC(=O)c1cccc(C(=O)Nc2nc3ccc(OC)cc3s2)n1
x | 0% | x | u | COc1ccccc1C(=O)NC(CCSC)C(=O)OC(C)C(=O)NC1CC1 (centres undefined)
x | -4% | x | -1.1% | CN1/C(=C/C(=O)COC(=O)C2COc3ccccc3O2)C(C)(C)c2ccccc21 (centres undefined)
-13% | -14% | 1 | 0.1% | COc1ccc(C(=O)N2CCN(c3ccc(C)c(C)c3)CC2)cc1OC
-3% | 18% | 3 | 4.0% | FC(F)(F)c1cccc(NC(=S)Nc2ccc(Cl)cc2Cl)c1
-10% | 2% | -5 | 0.1% | CCC1CO/C(=C(\C(Cl)=C(Cl)Cl)[N+](=O)[O-])N1 (centres undefined)
-2% | 13% | x | u | CC(=O)Oc1ccc(-c2nc3c(C)cccc3c(=O)o2)cc1
0% | 14% | x | 0.2% | CC(OC(=O)CCCC(=O)Nc1ccccc1)C(=O)c1ccccc1 (centres undefined)
x | 4% | x | -3.0% | O=C(CN1C(=O)C(=O)N(C2CCCC2)C1=O)Nc1ccc(Cl)cc1C(F)(F)F
13% | -3% | 3 | 1.3% | Cc1c(OC(C(=O)O)c2ccccc2)ccc2c(-c3ccccc3)cc(=O)oc12 (centres undefined)
27% | -7% | -6 | -4.4% | COc1cccc(CNCCc2c[nH]c3ccccc23)c1OCc1ccc(F)cc1
x | 8% | x | -0.3% | O=C(CCS(=O)(=O)c1ccc(F)cc1)Nc1nnc(-c2ccc(F)cc2)o1
0% | 35% | 1 | -2.8% | CCn1ncc([N+](=O)[O-])c1C(=O)NC1CCCCC1
-33% | 2% | x | u | COc1ccccc1N1C(=O)S/C(=C\c2ccc(C)s2)C1=O
-3% | -3% | 6 | 1.1% | Cc1ccc(-n2ncc3c(NCCCn4ccnc4)ncnc32)c(C)c1
5% | 11% | -8 | -0.1% | COCc1cc(C)nc(SCC[N+](C)(C)CC(=O)Nc2cccc(C)c2)c1C#N
x | -3% | x | 3.0% | CC(=O)c1ccc(CCCCc2ccc(C(C)=O)cc2)cc1
0% | 1% | x | 0.4% | Cc1ccn(CCC(=O)NC2CCCc3c2cnn3-c2cccc(C)c2C)n1 (centres undefined)
-5% | 8% | x | 2.4% | CC1CCN(C(=O)CC(NC(=O)c2ccccc2Cl)c2ccccc2)CC1 (centres undefined)
-2% | 1% | -4 | 0.0% | O=C(CN1CCN(C(=O)c2c(F)cccc2F)CC1)Nc1ccccc1F
-54% | 0% | -1 | 1.1% | O=C(N/N=C\CCc1ccccc1)c1ccco1
7% | -14% | x | -4.1% | COc1cc(/C=C/[N+](=O)[O-])ccc1OC(=O)c1cc2ccccc2oc1=O
5% | 4% | x | 0.3% | Cc1ccc(S(=O)(=O)NC(C)(C)CN2CCNCC2)cc1
2%&-6% | 1% | -9 | 1.8% | Cc1cccc2sc(N(CCCN(C)C)C(=O)c3ccc(Cl)s3)nc12
1% | -3% | 0 | 0.4% | CCCCCCCCN=C1NC(=O)CS1
x | -1% | x | -1.0% | Cc1ccc(S(=O)(=O)N(C)C)cc1NC(=O)COC(=O)c1ccc2c(=O)n3c(nc2c1)CCC3
-1%&-3% | 16% | 2 | 2.3% | Cc1ccc(CCNC(=O)CCSCc2ccc(Cl)cc2)cc1

(listing goes on)
miR-21 reporter | Rango dissoc inh | GLA inh pH 4.5 | Rango-impB inh | compound
-11% | 1% | x | 2.4% | O=C(NCCCN1CCOCC1)c1cc(Cl)ccc1Cl
-9% | -7% | x | -0.1% | Cc1cc(C)c2c(CC(=O)NNC(=O)c3ccccc3)coc2c1
-37% | -6% | -9 | 1.1% | Cn1c(O)c(N=NC(=O)c2ccccc2O)c2ccccc21
0% | -11% | 2 | 1.6% | CCn1c(SCc2ccc([N+](=O)[O-])cc2)nnc1C(C)NC(=O)c1ccccc1Br (centres undefined)
1% | -3% | 2 | -0.3% | Cc1cc(/C(N)=N/OC(=O)c2ccccc2Cl)no1
2% | -12% | 5 | -3.9% | O=C(CN1C(=O)c2ccccc2S1(=O)=O)NCCSc1ccccc1
-3% | u | 7 | -0.6% | CCOc1ccc(CN2CCN(Cc3ccon3)CC2CCO)cc1 (centres undefined)
x | 31% | x | 9.9% | COc1ccccc1N1CCN(CC(=O)Nc2ccnn2C2CCCC2)CC1

Compound profiles, as listed above:
Entry for CCOc1ccc(CN2CCN(Cc3ccon3)CC2CCO)cc1 (centres undefined) = miR-21 reporter: -3%; Rango dissoc inh: u; GLA inh pH 4.5: 7; Rango-impB inh: -0.6%
Entry for O=C1[C@@H]2[C@H](C(=O)N1O)[C@H]1C=C[C@@H]2C1 = miR-21 reporter: -1%; Rango dissoc inh: -9%; GLA inh pH 4.5: -7; Rango-impB inh: 0.7%
